High-throughput results: PubChem, Center for Chemical Genomics, University of Michigan
HIV TAR-Tat = HIV-1 TAR-Tat binding disruption; HIV-1 TAR RNA, Tat peptide displacement FRET; active compounds read high; hit rate 0.6% among 100,000; z-score (concentration not given with the values); AID 1259389;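 also: score is relative to mean and SD of negative controls; some compounds called inactive have numbers as strong as hits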
CDC25B-CDK2 inh = human CDC25B-CDK2/CyclinA binding inhibition; hit rate 0.72% among 94,000; z-score (concentration not given with the values); P30305+P24941; HTRF CDC25B-CDK2/CyclinA binding, anti-His/anti-Flag; active compounds read high;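 also: score is relative to mean and SD of negative controls; strong numbers were not always called active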
Active calls of the source: *; . = not tested or not shown.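 The calls were made as follows: active = z-score from 3 up in half or more of its runs; inactive = the rest.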 Compounds as they come. About 0.97% of those tested had a hit in this group.

no. | structure | HIV TAR-Tat | CDC25B-CDK2 inh
1 | COc1ccc(Cc2nc3c4cnn(-c5ccc(Cl)cc5)c4ncn3n2)cc1 | 1.9 | 0.17
2 | CC(=O)N1C(=O)N(C(C)=O)C2C1N(C(C)=O)C(=O)N2C(C)=O (stereo not drawn) | . | -0.79
3 | Nc1nonc1C(=O)NCCNCc1cccs1 | -1.1 | -0.56
4 | Cn1c(=O)c2c(SCC(=O)Nc3ccc(Cl)cc3)nc(CC(C)(C)C)nc2n(C)c1=O | 0.27 | .
5 | CSc1cc(-c2sc(-c3cccs3)nc2C)[nH]n1 | . | -1.7
6 | Cc1cc2c(cc3c(SCc4nc(-c5ccccc5)oc4C)nncn32)o1 | 1.1 | .
7 | O=C(CC1(CC2=NS(=O)(=O)c3ccccc3N2)CCCC1)NCCc1cccs1 | 0.88 | .
8 | Cc1ccccc1COc1ccccc1C1CC(=O)Nc2c1c(C)nn2-c1ccc2nnc(C)n2n1 (stereo not drawn) | 0.79 | .

Random excerpt: 2 entries already listed, in no set order.
no. | structure | HIV TAR-Tat | CDC25B-CDK2 inh
6 | Cc1cc2c(cc3c(SCc4nc(-c5ccccc5)oc4C)nncn32)o1 | 1.1 | .
4 | Cn1c(=O)c2c(SCC(=O)Nc3ccc(Cl)cc3)nc(CC(C)(C)C)nc2n(C)c1=O | 0.27 | .

Continuation.
no. | structure | HIV TAR-Tat | CDC25B-CDK2 inh
9 | COc1ccccc1N1CCN(S(=O)(=O)c2ccc(Br)cc2)CC1 | 1.4 | 1.1
10 | COc1ccc(C2Nc3ccccc3NC3=C2C(=O)CC(c2ccc(OC)c(OC)c2)C3)cc1O (stereo not drawn) | 1.4 | .
11 | CCCCN(C)C(=O)Cn1c(=O)oc2cc(S(=O)(=O)N3CC(C)CC(C)C3)ccc21 (stereo not drawn) | 0.46 | -0.66
12 | Fc1ccc(-c2noc3ncnc(N4CCCC4)c23)cc1 | 0.46 | .
13 | Cc1cc2nc(CSc3nc4ccc(NC(=O)C5CC5)cc4s3)cc(=O)n2o1 | 0.63 | .
14 | CCN1C(=S)NC2CC1(C)Oc1c(OC)cccc12 (stereo not drawn) | . | -0.82
15 | CN1C(=O)CC(c2cn(Cc3ccccc3)c3ccccc23)C1=O (stereo not drawn) | -7.5 | 0.68
16 | Cc1cccc(NC(c2cccc(O)c2)c2ccc3ccc(C)nc3c2O)n1 (stereo not drawn) | 0.04 | 0.14
17 | Cc1ccc(CSc2nnc3c(n2)[nH]c2ccccc23)cc1 | -1.1 | -3.4
18 | O=C(Oc1cc(S(=O)(=O)c2ccc(Cl)cc2)ccc1[N+](=O)[O-])c1cc2ccccc2s1 | . | -1.3
19 | Cc1oc2ncnc(N3CCOCC3)c2c1C(=O)NC1CC1 | 1 | .
20 | CCCCOc1ccc(S(=O)(=O)n2nc(C)c(S(=O)(=O)N3CCCCC3)c2C)cc1 | 1.2 | .
21 | CCOc1ccc(CN=C2NS(=O)(=O)C(c3ccc(OC)cc3)=C2C)cc1 | 2.4 | -0.35
22 | CC(=O)N1CCc2cc(S(=O)(=O)NC(C(=O)N3CCN(C4CCCCC4)CC3)C(C)C)ccc21 (stereo not drawn) | . | -1.2
23 | Cc1nn(CCCC(=O)NCc2ccc(Cl)cc2)c(=O)c2cc3sccc3n12 | . | -1.6
24 | O=[N+]([O-])c1cccc(-c2noc(CSC3=NCCN3)n2)c1 | . | -1.4
25 | CCOC(=O)CSc1nnc(NCC(=O)OC)c(=O)[nH]1 | . | 4.2*
26 | CC(=O)OC[C@@]1(O)CC23CC[C@@H]4c5ccoc5CC[C@@]4(C)[C@@H]2CC[C@@H]1C3 | 2.3 | .
27 | Cc1nc2c(c(C)c1CCC(=O)NCC1CCN(C3CCCC3)C1)c(=O)n(C)c(=O)n2C (stereo not drawn) | -1.3 | -1.3
28 | O=[N+]([O-])c1ccc(S(=O)(=O)c2ccccc2)cc1OS(=O)(=O)c1ccc(F)cc1F | . | -1.2
29 | CCOCCCNC(=O)c1cc2c(s1)-c1ccc(Cl)cc1SC2 | 2.4 | 0.02
30 | N#Cc1nc(/C=C/c2ccccc2Cl)oc1N1CCN(C(=O)c2ccccc2)CC1 | -0.35 | 0.14
31 | CSc1cccc(NS(=O)(=O)c2cc(Br)cnc2N)c1 | 1.9 | -0.73
32 | C=CCn1c(SCC(=O)NCCCN2CCOCC2)nc2sc3c(c2c1=O)CCCC3 | . | -2.5
33 | CCN(CC)c1ccc(NS(=O)(=O)c2ccc3c(c2)NC(=O)CS3)c(C)c1 | 0.9 | .
34 | COc1ccccc1-c1cc(C(F)(F)F)n2ncc(C(=O)O)c2n1 | 3.1 | -0.14
35 | Cc1ccc(Cn2nnc3c(C)nn4c(-c5ccc(C)o5)nnc4c32)cc1 | -2.5 | -2.2
36 | C(/C=C/c1ccccc1)=Nc1ccccc1 | . | -1.2
37 | CCOc1ccc(OCC)c(NC(=O)C2=Cc3sc4c(c3CS2)CCCC4)c1 | -0.86 | .
38 | Cc1nsc(NC(=O)c2oc3cc(C)c(Cl)cc3c2C)n1 | 0.68 | -1.3
39 | C[C@H]1CC[C@@H](C(C)(C)O)CC2=C1CC[C@@H]2C | 2.5 | .
40 | O=C(c1noc2c1CCc1ccccc1-2)N1CCOCC1 | . | -1.6
41 | O=C(CC1NCCNC1=O)NC1Cc2ccccc2C1 (stereo not drawn) | . | -0.39
42 | CC1Cc2ccccc2N1S(=O)(=O)c1ccc(-c2ccc(=O)[nH]n2)o1 (stereo not drawn) | -0.07 | .
43 | Cc1ccc(-c2nc3c4c(C)c(C)n(-c5cccc(C)n5)c4ncn3n2)cc1 | 1.1 | -1.6
44 | CCSc1ncc(Cl)c(C(=O)Nc2sc3c(c2C(=O)NCc2ccco2)CCC3)n1 | -3.4 | -2.8
45 | CSc1cccc(NS(=O)(=O)c2ccc3[nH]c(=O)c(=O)[nH]c3c2)c1 | 2.6 | 0.86
46 | COC(=O)c1cc(OC)c(OC)cc1-n1cnc2cc(OC)c(OC)cc2c1=O | -0.43 | -0.35
47 | Cc1ccc2c(=O)c(C(=O)c3ccc(F)cc3)cn(CC(N)=O)c2n1 | 1.7 | .
48 | Cc1ccc(S(=O)(=O)c2c[nH]c3cc4c(cc3c2=O)OCO4)cc1 | 0.96 | -1
49 | O=C1COc2cc(S(=O)(=O)NCCCN3CCc4ccccc4C3)c(Cl)cc2N1 | 0.27 | .
50 | COC(=O)c1cc(NC2=NS(=O)(=O)c3ccccc32)cc(C(=O)OC)c1 | 1.2 | -1.4
51 | CCOC(=O)N1CCC(Nc2c(N3CCCC(C)C3)c(=O)c2=O)CC1 (stereo not drawn) | 0.94 | 0.72
52 | CC1CCC(NC(=O)CCSCc2cnn(-c3ccccc3)c2-n2cccc2)CC1 (stereo not drawn) | -1.1 | 0.18
53 | Cc1ccc(C)c(C(=O)CCC(=O)O)c1 | -1.2 | -1.7
54 | S=C1NCN(Cc2ccco2)CN1c1ccccc1 | . | -0.9
55 | CCCCc1c(O)nc(SCCC(=O)O)[nH]c1=O | 2.1 | -0.53
56 | CCOC(=O)C(C)Sc1nnc(CSc2ncccn2)n1-c1ccc(Cl)cc1 (stereo not drawn) | 1.9 | -0.76

Ordered by length of the SMILES (rising): some entries from above.
no. | structure | HIV TAR-Tat | CDC25B-CDK2 inh
55 | CCCCc1c(O)nc(SCCC(=O)O)[nH]c1=O | 2.1 | -0.53
51 | CCOC(=O)N1CCC(Nc2c(N3CCCC(C)C3)c(=O)c2=O)CC1 (stereo not drawn) | 0.94 | 0.72
56 | CCOC(=O)C(C)Sc1nnc(CSc2ncccn2)n1-c1ccc(Cl)cc1 (stereo not drawn) | 1.9 | -0.76
50 | COC(=O)c1cc(NC2=NS(=O)(=O)c3ccccc32)cc(C(=O)OC)c1 | 1.2 | -1.4

The main list resumes with the two entries that preceded the break.
no. | structure | HIV TAR-Tat | CDC25B-CDK2 inh
55 | CCCCc1c(O)nc(SCCC(=O)O)[nH]c1=O | 2.1 | -0.53
56 | CCOC(=O)C(C)Sc1nnc(CSc2ncccn2)n1-c1ccc(Cl)cc1 (stereo not drawn) | 1.9 | -0.76
57 | C=CCOc1ccc(/C(O)=C2\C(=O)C(=O)N(CCN(C)C)C2c2ccc(Br)cc2)cc1C (stereo not drawn) | 0.24 | -1.5
58 | CCCN1CN=C(Nc2nc(C)c3cc(CC)ccc3n2)NC1 | -0.57 | -0.24
59 | CC1=C(C(=O)N(CC(=O)NCCc2cccs2)c2ccc(Cl)cc2)SCCO1 | 0.19 | 0.15
60 | O=C(c1noc2c1CCc1sccc1-2)N1CCN(c2ccc(Cl)cc2)CC1 | 0.2 | .
61 | Cc1nc2sc(C)c(C)n2c(=O)c1S(=O)(=O)Nc1ccc(Br)cc1 | 0.13 | .
62 | CC1=C(Oc2ccc(Cl)cc2)C(C)(O)N=C(C(F)(F)F)N1 (stereo not drawn) | . | -4
63 | Cc1nc(Oc2cccnc2)c2oc3ccccc3c2n1 | 2 | .
64 | CCC(C)OC(=O)C1=C(C)NC2=C(C(=O)C(C(=O)OC)C(C)C2)C1c1cccc(Br)c1 (stereo not drawn) | 1.3 | -0.7
65 | Cc1nc(-c2ccccn2)nc(SCc2ccccc2)c1Cl | . | -0.88
66 | CCCNC(=O)CN1C(=O)c2ccccc2S1(=O)=O | . | -1
67 | CCOC(=O)NC(=S)N1CCOCC1 | . | -1.7
68 | COc1ccc(Nc2cc(-c3ccccc3)nc3ncnn23)c(OC)c1 | . | -2.2
69 | COc1ccc(Cl)cc1NC(=O)CCS(=O)(=O)c1ccc2c(c1)NC(=O)CS2 | -2.2 | .
70 | C=CCSc1ncnc2c1sc1nc3c(cc12)COC(C)(C)C3 | . | -2
71 | C#CCOc1nc(OCC#C)nc(OCC#C)n1 | . | -0.77
72 | CCc1ccc(NC(=O)Cc2ccc(NC3=NC4CS(=O)(=O)CC4S3)cc2)cc1 (stereo not drawn) | 0.18 | -1.5
73 | Cc1ccc(-n2c(C)nnc2SCc2nc(-c3cccs3)no2)cc1 | 2.7 | -1.1
74 | CCOc1cc(S(=O)(=O)n2ccnc2C(C)C)ccc1Cl | 0.07 | 0.08
75 | COC(=O)Cn1c(=O)oc2ccc(C)cc21 | 1.1 | 0.35
76 | COc1ccc(C2c3c(oc4cc(C)c(C)cc4c3=O)C(=O)N2c2ccccn2)cc1 (stereo not drawn) | 0.93 | 0.16
77 | Cc1nc(-n2cccc2)sc1C(=O)NCCC(C)C | 0.56 | -2.1
78 | Fc1ccc(-c2noc3ncnc(NCCc4ccsc4)c23)cc1 | 2.2 | .
79 | CC(=O)Nc1c2n(c3ccccc13)CC(C)(C(=O)NC1CCCC1)N(C1CCCCC1)C2=O (stereo not drawn) | 1.3 | .
80 | COc1ccc(CC(=O)c2ccc(C(=O)Cc3ccc(OC)c(OC)c3)cc2)cc1OC | -2.1 | -0.24
81 | NC(N)=NCCS(=O)(=O)O | . | -0.73
82 | CCN(C(=O)C1[C@H]2C[C@@H]3[C@H](C2)OC(=O)[C@H]13)c1c(C)cc(C)cc1C (stereo partly drawn) | 2.4 | -2.5
83 | Cc1ccc(/C=C/c2nn3c(-c4ccncc4)nnc3s2)cc1 | -1.2 | -2.1
84 | CC1CCCN(c2nn3c(=O)c(C(=O)NC4CC4)cnc3s2)C1 (stereo not drawn) | 0 | .
85 | O=c1c(N2CCN(Cc3ccccc3)CC2)csc2ccc(F)cc12 | 0.36 | .
86 | O=C(C1CCC1)N1CCc2cc(S(=O)(=O)NCC3COc4ccccc4O3)ccc21 (stereo not drawn) | . | -1.1
87 | Cc1ccc(C(=O)CC2(O)C(=O)N(C)c3ccccc32)o1 (stereo not drawn) | 0.93 | -0.59
88 | CCOC(=O)C1CCN(C(=O)C(C)n2ncn3cccc3c2=O)CC1 (stereo not drawn) | 1.4 | -2.5
89 | Cc1ccc2oc(-c3ccc(F)cc3)c(O)c(=O)c2c1 | 1.1 | -1.4
90 | CN1CCN(c2nc(N3CCOCC3)nc3c2cnn3C)CC1 | 1.1 | .
91 | O=C(c1cc2nc(-c3ccc(Cl)cc3)cc(C(F)(F)F)n2n1)N1CCOCC1 | 1.6 | -1.6
92 | Cc1ccc([C@@H]2Nc3ccc(C(=O)O)cc3[C@@H]3C=CC[C@@H]32)cc1 | . | 0.01
93 | COc1cccc(C2Nc3c(C(=O)O)cccc3C3C4CCC(C4)C23)c1 (stereo not drawn) | 2.1 | -1.5
94 | C#CCN1C(=O)C(O)(CC(=O)c2cccc3ccccc23)c2ccccc21 (stereo not drawn) | -3.8 | -2.6
95 | O=c1c2ccccc2[nH]c(=S)n1Cc1cccnc1 | . | -0.48
96 | CC(C)NC(=O)c1[nH]nc2c1COc1ccccc1-2 | -2.4 | .

Entries by screen from the list.
Compounds 89–96 in HIV TAR-Tat read 1.1, 1.1, 1.6, ., 2.1, -3.8, ., -2.4

Next section
no. | structure | HIV TAR-Tat | CDC25B-CDK2 inh
97 | Fc1ccc(Nc2c3c(nc4ncnn24)CCC3)c(F)c1 | 0.52 | .
98 | Cc1cccc(CN2C=NS(=O)(=O)c3ccc(C)cc32)c1 | 0.91 | .
99 | Cc1onc(-c2ccccc2)c1C(=O)Nc1ccccc1F | . | -0.74
100 | CCOc1ccc(Br)cc1C1N2CC3(CC)CN1CC(CC)(C2)C3=O (stereo not drawn) | 0.8 | 0.19
101 | Cn1cc(Cl)c(/C=C(\C#N)C(=O)c2ccc(Cl)cc2)n1 | . | -2.1
102 | CCc1nn(CCCC(=O)NC(C)CC)c(=O)c2cc3oc(C)cc3n12 (stereo not drawn) | 0.56 | -1.5
103 | O=C1c2oc3ccc(Cl)cc3c(=O)c2C(c2ccc(F)cc2)N1CCCN1CCOCC1 (stereo not drawn) | 0.5 | -2.2
104 | COc1ccc(N(Cc2cc3ccccc3[nH]c2=O)S(=O)(=O)c2ccccc2)cc1 | 2.4 | -2.9
105 | Cc1ccc(NS(=O)(=O)c2cc(-c3onc(C)c3C)ccc2C)cc1F | 1.1 | .
106 | O=C1C(=O)N(c2cccnc2)C(c2ccc(O)cc2)/C1=C(\O)c1ccc(Cl)cc1 (stereo not drawn) | 2.7 | -2.6
107 | CCOC(=O)CNc1ncnc2oc(C)c(C(=O)OCC)c12 | 0.14 | .
108 | CCOC(=O)C1C2C=CC3(CN(c4ccc(CC)cc4)C(=O)C13)O2 (stereo not drawn) | 0.03 | -1.2
